# Assay outcomes (PubChem)
# HIV Env fusion = blocks HIV Env-driven cell-cell fusion. hit rate 1.1% among 360,000. AID 651610. inhibition, % at 12.3 µM. HeLa-JRFL Env/CEM21 cell fusion, luciferase;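 active = mean replicate inhibition score of at least 50 and every replicate individually at or above 50; inconclusive = only one of the two criteria met; inactive = mean below 50 and not all replicates reaching 50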;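 also: 0% = plate neutral controls and 100% = maraviroc near 300 nM; one replicate is shown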
# * hit, by the source's call; ? = inconclusive; [ ] = dose if it differs, or a comment. The list is partial, so the mix of outcomes need not match the whole.
(1) CCCNC(=O)Nc1ccc2c(c1)C(=O)N(C)C[C@H](OC)[C@@H](C)CN(Cc1ccc(-c3ccccn3)cc1)[C@H](C)CO2
  HIV Env fusion: -78[16.7 µM]

(2) COC(=O)C[C@H]1CC[C@H]2[C@@H](COc3ccc(NC(=O)c4ccccc4OC)cc3C(=O)N2C)O1
  HIV Env fusion: -27[16.7 µM]

(3) O=C(NC1CCCC1)[C@H]1[C@H](CO)[C@H]2Cn3c(ccc(-c4ccccc4)c3=O)[C@@H]1N2CCc1ccccc1
  HIV Env fusion: 5[16.7 µM]

(4) COc1ccc(CN(C)C[C@H]2OCCCC[C@@H](C)Oc3ccc(NC(=O)C4CCCCC4)cc3C(=O)N([C@@H](C)CO)C[C@H]2C)cc1
  HIV Env fusion: 0[16.7 µM]

(5) C[C@H](CO)N1C[C@H](C)[C@H](CN(C)S(=O)(=O)c2ccc(C(F)(F)F)cc2)OCc2ccccc2-c2ccccc2C1=O
  HIV Env fusion: 44[16.7 µM]

(6) O=C(C[C@H]1C[C@@H]2c3cc(NC(=O)NC4CCCC4)ccc3O[C@@H]2[C@H](CO)O1)NCc1ccncc1
  HIV Env fusion: 16[16.7 µM]

(7) C[C@@H]1CCCCO[C@@H](CN(C)C(=O)Nc2ccc(C(F)(F)F)cc2)[C@@H](C)CN([C@H](C)CO)C(=O)c2cc(NC(=O)Nc3cccc4ccccc34)ccc2O1
  HIV Env fusion: -14[16.7 µM]

(8) C[C@H](CO)N1C[C@H](C)[C@H](CN(C)Cc2ccc3c(c2)OCO3)Oc2ccc(NS(C)(=O)=O)cc2C1=O
  HIV Env fusion: -8[16.7 µM]

(9) C[C@@H]1CN([C@H](C)CO)C(=O)c2ccccc2-c2ccccc2CO[C@H]1CN(C)C(=O)Nc1ccc2c(c1)OCO2
  HIV Env fusion: -5[16.7 µM]

(10) CO[C@H]1CN(C)C(=O)c2ccc(NC(=O)c3nc4ccccc4s3)cc2OC[C@@H](C)NC[C@H]1C
  HIV Env fusion: -14[16.7 µM]

(11) O=C(C[C@@H]1CC[C@H](NC(=O)CN2CCOCC2)[C@@H](CO)O1)NCc1cccc(F)c1
  HIV Env fusion: -12[16.7 µM]

(12) CN1C(=O)c2cc(NC(=O)Nc3ccccc3)ccc2OC[C@@H]2O[C@H](CC(=O)O)CC[C@H]21
  HIV Env fusion: -11[16.7 µM]

(13) COC(=O)C1=C(C)N(Cc2ccccc2C(F)(F)F)C(=NCc2ccccc2)NC1c1ccc(F)cc1 (stereo not given)
  HIV Env fusion: -22

(14) CCCC(=O)Nc1ccc2c(c1)OC[C@H](C)N(C(=O)CN(C)C)C[C@H](C)[C@@H](OC)CN(C)C2=O
  HIV Env fusion: ?

(15) CO[C@@H]1CN(C)C(=O)c2ccc(NC(=O)C3CCOCC3)cc2OC[C@@H](C)NC[C@@H]1C
  HIV Env fusion: -6[16.7 µM]

(16) Cc1noc(C)c1S(=O)(=O)N(C)C[C@@H]1Oc2c(NC(=O)C3CCOCC3)cccc2C(=O)N([C@@H](C)CO)C[C@@H]1C
  HIV Env fusion: -9[16.7 µM]

(17) C[C@@H]1CN([C@@H](C)CO)C(=O)CCCn2cc(nn2)CO[C@@H]1CN(C)C(=O)Nc1ccc2c(c1)OCO2
  HIV Env fusion: -24[16.7 µM]

(18) CC1=C(c2ccccc2)C(=O)C(C)(C)CC1=O
  HIV Env fusion: -7

(19) NC(=O)c1ncn([C@@H]2O[C@H](C(=O)N[C@H](Cc3c[nH]c4ccccc34)C(=O)N3CCN(C(=O)N4CCOCC4)CC3)[C@@H](O)[C@H]2O)n1
  HIV Env fusion: -3

(20) COC(=O)[C@]12C[C@H](CC(=O)NCc3cccc4ccccc34)C(=O)N(CCc3ccc(OC)c(OC)c3)C1=C[C@H](C(C)(C)C)O[C@@H]2C
  HIV Env fusion: -43

(21) O=C(C[C@@H]1C[C@H]2c3cc(NC(=O)c4cccnc4)ccc3O[C@H]2[C@@H](CO)O1)NC1CCCCC1
  HIV Env fusion: 3[16.7 µM]

(22) C[C@H]1CCCCO[C@@H](CN(C)C(=O)CCCN(C)C)[C@@H](C)CN([C@@H](C)CO)C(=O)c2cc(NS(C)(=O)=O)ccc2O1
  HIV Env fusion: 4[16.7 µM]

(23) C[C@@H]1CN([C@@H](C)CO)C(=O)c2c(c3ccccc3n2C)-c2ccccc2CO[C@H]1CN(C)C(=O)[C@@H]1CCCN1C
  HIV Env fusion: -27[16.7 µM]

(24) Cc1[nH]c2ccccc2c1CC(=O)Nc1ccc(Nc2ccccc2)cc1
  HIV Env fusion: -63

(25) CCCNC(=O)Nc1ccc2c(c1)OC[C@H](C)N(Cc1ccc(-c3ccccn3)cc1)C[C@H](C)[C@@H](OC)CN(C)C2=O
  HIV Env fusion: -37[16.7 µM]

(26) C[C@]1(C(=O)NC2CC2)c2ccccc2C(=O)N(Cc2cc(C(F)(F)F)cc(C(F)(F)F)c2)[C@H]1c1ccc(CO)cc1
  HIV Env fusion: -17[16.7 µM]

(27) CNC(=O)C[C@H]1CC[C@@H]2[C@@H](COc3ccc(NC(=O)Nc4c(C)noc4C)cc3C(=O)N2C)O1
  HIV Env fusion: -14[16.7 µM]

(28) C[C@H](CO)N1C[C@H](C)[C@H](CN(C)C(=O)Nc2ccccc2)OCCCC[C@H](C)Oc2ccc(NC(=O)Nc3ccccc3)cc2C1=O
  HIV Env fusion: -64[16.7 µM]

(29) C[C@@H]1CCCCO[C@@H](CN(C)Cc2ccncc2)[C@@H](C)CN([C@H](C)CO)C(=O)c2cc(NC(=O)CCC(F)(F)F)ccc2O1
  HIV Env fusion: -29[16.7 µM]

(30) O=C(C[C@@H]1CC[C@H](NC(=O)C2CCOCC2)[C@@H](CO)O1)NCc1ccccc1Cl
  HIV Env fusion: 7[16.7 µM]

# Following part:
item	Structure	HIV Env fusion
31	C[C@H](CO)N1C[C@H](C)[C@H](CN(C)Cc2cccc(C(=O)O)c2)OCc2ccccc2-c2c(n(C)c3ccccc23)C1=O	-16[16.7 µM]
32	CC(C)COC(=O)N(C)C[C@H]1OCc2ccccc2-c2ccccc2C(=O)N([C@@H](C)CO)C[C@@H]1C	44[16.7 µM]
33	COc1ccc(NC(=O)N[C@@H]2CC[C@H](CCNC(=O)CCN3CCCCC3)O[C@H]2CO)cc1	-1[16.7 µM]
34	Cc1noc(C)c1S(=O)(=O)N(C)C[C@@H]1Oc2ccc(NS(=O)(=O)c3ccc(F)cc3)cc2CC(=O)N([C@H](C)CO)C[C@H]1C	0[16.7 µM]
35	CSC1=Nc2ccccc2N=C(N2CCCC2)C1	-7
36	C[C@H]1CN([C@@H](C)CO)C(=O)c2cc(C#CC3CC3)cnc2O[C@@H]1CN(C)C(=O)C1CCCCC1	15[16.7 µM]
37	C[C@@H]1CCCCO[C@@H](CN(C)C(=O)Nc2ccccc2)[C@@H](C)CN([C@H](C)CO)C(=O)c2cc(NC(=O)Nc3ccccc3)ccc2O1	9[16.7 µM]
38	CC(C)NC(=O)Nc1ccc2c(c1)C(=O)N([C@@H](C)CO)C[C@@H](C)[C@H](CN(C)C(=O)NC1CCCCC1)OCCCC[C@@H](C)O2	-6[16.7 µM]
39	O=C(C[C@@H]1CC[C@@H]2[C@H](COC[C@H](O)CN2S(=O)(=O)c2ccccc2F)O1)N1CCC(Cc2ccccc2)CC1	27[16.7 µM]
40	CO[C@H]1CN(C)C(=O)c2ccc(NC(=O)c3ccc4c(c3)OCO4)cc2OC[C@H](C)N(CCC(F)(F)F)C[C@H]1C	18[16.7 µM]
41	C[C@H]1CN([C@@H](C)CO)C(=O)c2cccc(N(C)C)c2O[C@@H]1CN(C)Cc1ccc(-c2ccccc2)cc1	11[16.7 µM]
42	O=C(Nc1ccc(C(F)(F)F)cc1)Nc1ccc2c(c1)[C@@H]1C[C@H](CC(=O)N3CCc4ccccc4C3)O[C@@H](CO)[C@@H]1O2	40[16.7 µM]

# (next part)
item	Structure	HIV Env fusion
43	O=C(C[C@H]1CC[C@@H]2[C@H](COC[C@H](O)CN2CCc2ccccc2)O1)NCCCN1CCOCC1	5[16.7 µM]
44	COc1ccc2c3c(n(C)c2c1)[C@@H](CO)N(C(=O)CC1CC1)CC31CCN(C(=O)CC2CC2)CC1	-13[16.7 µM]
45	CC(C)NC(=O)Nc1ccc2c(c1)CC(=O)N([C@H](C)CO)C[C@@H](C)[C@@H](CN(C)C)O2	10[16.7 µM]
46	C[C@H](CO)N1C[C@H](C)[C@@H](CN(C)C(=O)c2ccncc2)Oc2ncc(C#CC3CCCC3)cc2C1=O	0[16.7 µM]
47	CN1C(=O)c2cc(NS(=O)(=O)c3cccc(F)c3)ccc2OC[C@@H]2O[C@@H](CC(=O)NCCN3CCCCC3)CC[C@@H]21	-20[16.7 µM]
48	COc1ccc(-c2cc(-c3ccccc3)c(-c3ccccc3)nn2)cc1	16
49	CCc1cnc(N2[C@H](C#N)[C@@H](c3ccc(C#CCC4CCCC4)cc3)[C@@H]2CO)s1	-14[16.7 µM]
50	C[C@@H]1CN([C@H](C)CO)C(=O)c2cc(NC(=O)Nc3ccc(F)cc3)ccc2O[C@H]1CN(C)C(=O)Nc1ccc2c(c1)OCO2	-12[16.7 µM]
51	CO[C@H]1CN(C)C(=O)c2ccc(NC(=O)Nc3ccccc3Cl)cc2OC[C@@H](C)NC[C@@H]1C	15[16.7 µM]
52	CO[C@@H]1CN(C)C(=O)c2ccc(NC(=O)Nc3cccc(F)c3)cc2OC[C@@H](C)NC[C@H]1C	9[16.7 µM]
53	C[C@@H]1CN([C@H](C)CO)S(=O)(=O)c2ccc(C3=CCCC3)cc2O[C@H]1CN(C)S(C)(=O)=O	10[16.7 µM]
54	C[C@H](NC(=O)C[C@H]1CC[C@@H](NC(=O)c2cccnc2)[C@@H](CO)O1)c1ccccc1	2[16.7 µM]
55	C[C@@H]1CCCCO[C@@H](CN(C)Cc2ccc3c(c2)OCO3)[C@H](C)CN([C@H](C)CO)C(=O)c2cc(NS(C)(=O)=O)ccc2O1	3[16.7 µM]
56	CCCNC(=O)Nc1ccc2c(c1)C(=O)N(C)C[C@H](OC)[C@H](C)CN(Cc1ccncc1)[C@H](C)CO2	-17[16.7 µM]
